DUX4 txn inh – inhibitors of DUX4-driven ZSCAN4 reporter expression, primary screen, 293T cells, Gaussia and Italica luciferase; 293T-iDUX4 ZSCAN4-Gaussia luciferase reporter, 24 h; hits give low values; activity change, negative = inhibition, % (no concentration beside the values); hit rate 0.8% among 37,000; AID 1224904, 2016;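 active = -10% or lower and over 25 points stronger than a control reporter; inconclusive = -10% or lower with a smaller gap; inactive = above -10%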;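 also: 0% = median of neutral control wells and -100% = median of positive control wells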
DUX4 txn inh difference – further read-out of DUX4 txn inh, marked with its call; Gaussia minus Italica difference, %; measured here: selective DUX4 reporter inhibition;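 worked out from the two reporters; negative = selective loss of the DUX4 reporter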
DUX4 txn inh control – recorded beside DUX4 txn inh, whose call it bears; activity change, negative = inhibition, %; measured here: Italica tet-on control reporter;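 0 = neutral control and -100 = positive control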
Active calls of the source: *; ? = inconclusive; nt = no result given. Only part of the results is shown; rates above refer to the full screens.

SMILES	DUX4 txn inh	DUX4 txn inh difference	DUX4 txn inh control
COc1ccccc1CNC(=O)C[C@H]1C[C@H]2c3cc(NC(=O)Nc4ccccc4F)ccc3O[C@H]2[C@@H](CO)O1	?	nt	nt
COc1ccc(-c2ccc3c(c2)[C@H]2[C@H](CCN2C(=O)c2ccc4c(c2)OCO4)[C@@H](CO)N3)cc1	?	nt	nt
CN1c2ccc(-c3ccccc3)cc2[C@@H]2[C@@H](CCN2S(=O)(=O)c2ccccc2F)[C@@H]1CO	4	4	-0.8
Cc1noc(C)c1NC(=O)Nc1ccc2c(c1)C(=O)N([C@@H](C)CO)C[C@@H](C)[C@@H](CN(C)C(=O)NC1CCCCC1)OCCCC[C@@H](C)O2	3	3	-0.7
COc1ccc2c3c(n(C)c2c1)[C@@H](CO)N(C(=O)C1CCOCC1)CC31CN(C(=O)Nc2cccc(F)c2)C1	9	4	4.2
COCC(=O)N1CC2(CN(Cc3ccccc3)C2)c2c(n(C)c3cc(OC)ccc23)[C@H]1CO	2	-1	3.7
O=C(C[C@H]1CC[C@@H]2[C@H](COC[C@@H](O)CN2S(=O)(=O)c2ccc(F)cc2)O1)N[C@@H]1CCN(Cc2ccccc2)C1	-3	4	-7.7
CN1c2ccc(Br)cc2[C@H]2[C@H](CCN2C(=O)Cc2cccnc2)[C@@H]1CO	8	11	-3.0
COc1ccc2c3c([nH]c2c1)[C@H](CO)N(Cc1ccccc1)CC31CCN(C(=O)c2ccccn2)CC1	?	nt	nt
COc1ccc2c3c(n(C)c2c1)[C@H](CO)N(C(=O)c1cccnc1)CC31CCN(S(C)(=O)=O)CC1	15	4	11
COCC(=O)N(C)C[C@H]1[C@H](c2ccc(-c3cccnc3)cc2)[C@@H](CO)N1C(C)=O	2	3	-0.7
CC(=O)N1[C@@H](CO)[C@@H](c2ccccc2)C12CN(C(=O)c1ccccn1)C2	11	13	-2.1
COCC#Cc1cnc2c(c1)C(=O)N([C@@H](C)CO)C[C@@H](C)[C@H](CN(C)Cc1ccc(-c3ccccc3)cc1)O2	-1	0	-1.3
C[C@@H]1CN([C@@H](C)CO)C(=O)c2cc(NC(=O)c3ccncc3)ccc2O[C@@H](C)CCCCO[C@@H]1CN(C)C(=O)Nc1cccc2ccccc12	3	1	2.0
COc1ccc2c3c([nH]c2c1)[C@@H](CO)N(C)CC31CN(C(=O)Nc2c(C)noc2C)C1	6	-9	15
COc1cccc(NC(=O)N2CC(=O)N3[C@H](CO)[C@H](c4ccc(C#CC5CCCCC5)cc4)[C@@H]3C2)c1	-9	-5	-3.7
COc1cccc(-c2ccc3n(c2=O)C[C@H]2[C@H](CO)[C@@H](C(=O)N(C)C)[C@@H]3N2C(=O)c2ccccn2)c1	6	10	-4.2
CN1C(=O)c2cc(NC(=O)c3ccccc3Cl)ccc2OC[C@@H]2O[C@H](CC(=O)NCC(F)(F)F)CC[C@@H]21	4	15	-11
C[C@@H]1CN([C@H](C)CO)C(=O)c2c(c3ccccc3n2C)-c2ccccc2CO[C@@H]1CN(C)S(=O)(=O)Cc1ccccc1	12	9	2.6
COCC(=O)Nc1ccc2c(c1)OC[C@H](C)N(C)C[C@H](C)[C@@H](OC)CN(C)C2=O	1	-4	4.4
O=C(N[C@@H]1C=C[C@@H](CC(=O)N2CCCCC2)O[C@@H]1CO)c1ccc2c(c1)OCO2	3	1	1.8
Cc1nn(C)cc1NC(=O)C[C@@H]1CC[C@@H]2[C@@H](COc3ccc(NC(=O)C4CCOCC4)cc3C(=O)N2C)O1	1	-4	4.9
CCS(=O)(=O)N1CCC2(CC1)CN(C(=O)CN1CCOCC1)[C@@H](CO)c1c2c2ccc(OC)cc2n1C	26	22	4.7
COCC(=O)Nc1ccc2c(c1)C(=O)N(C)[C@@H]1CC[C@@H](CC(=O)NCc3ccc(OC)cc3)O[C@H]1CO2	6	5	0.7
C[C@@H]1CN([C@@H](C)CO)C(=O)c2cc(NS(=O)(=O)c3cccs3)ccc2O[C@H]1CN(C)S(=O)(=O)c1ccc(Cl)cc1	-1	0	-0.7
C[C@H]1CN([C@@H](C)CO)C(=O)CCCn2nncc2CO[C@@H]1CN(C)S(=O)(=O)c1cccc(F)c1	-2	-2	-0.1
COCC#Cc1ccc([C@H]2[C@H]3CN(S(=O)(=O)c4ccccc4F)CCCCN3[C@H]2CO)cc1	2	-5	6.7
C/C=C/c1ccc([C@@H]2[C@@H](CO)N[C@@H]2CN(CC)C(=O)c2ccccn2)cc1	-1	0	-1.2
C[C@H](O)C#Cc1ccc2c(c1)O[C@@H](CN(C)C(=O)Cc1ccccn1)[C@H](C)CN([C@@H](C)CO)S2(=O)=O	1	4	-2.4
N#C[C@@H]1[C@H](c2ccccc2-c2cccc(F)c2)[C@H](CO)N1C(=O)Nc1cc(F)ccc1F	?	nt	nt
O=C(C[C@H]1CC[C@H]2[C@@H](COC[C@H](O)CN2Cc2cccc(F)c2)O1)NCC1CCCCC1	?	nt	nt
CC=Cc1ccc2n(c1=O)C[C@H]1[C@H](CO)[C@@H](C(=O)NCCc3cn(C)cn3)[C@@H]2N1C(=O)C1CCCC1 (mixture of isomers)	6	6	0.3
CCCC(=O)Nc1ccc2c(c1)C(=O)N(C)[C@@H]1CC[C@H](CC(=O)O)O[C@@H]1CO2	2	-2	4.8
C[C@H]1CN([C@@H](C)CO)C(=O)c2cc(C3=CCCC3)cnc2O[C@H]1CN(C)C(=O)NC1CCCC1	0	-4	3.6
C[C@H](CO)N1C[C@H](C)[C@@H](CN(C)Cc2ccc3c(c2)OCO3)Oc2c(cccc2N(C)C)C1=O	3	2	1.2
C[C@H]1CN([C@@H](C)CO)S(=O)(=O)c2ccc(-c3ccccc3F)cc2O[C@@H]1CN(C)Cc1cncnc1	4	2	1.6
COCC(=O)N1CC[C@H]2[C@@H]1c1cc(-c3ccc(F)cc3)ccc1N(C)[C@H]2CO	10	18	-8.0
C/C=C/c1ccc([C@H]2[C@H]3CN(CCC(F)(F)F)CCCCN3[C@H]2CO)cc1	-4	-2	-2.3
C[C@H]1CN([C@@H](C)CO)C(=O)Cc2cc(NC(=O)Nc3ccc4c(c3)OCO4)ccc2O[C@H]1CN(C)S(=O)(=O)c1ccccc1	2	0	1.5
CCCC#Cc1ccc([C@@H]2[C@@H](CO)N3CCCCN(S(C)(=O)=O)C[C@@H]23)cc1	27	0	27
O=C(Nc1cccc(F)c1)N1[C@@H]2CNC[C@H]1C2c1ccc(-c2ccncc2)cc1 (some centres not stated)	21	3	18
COC(=O)C[C@@H]1C[C@@H]2c3cc(NC(=O)Nc4ccccc4)ccc3O[C@@H]2[C@@H](CO)O1	0	-9	9.1
CN1[C@@H]2c3ccc(-c4ccc(F)cc4)c(=O)n3C[C@H]1[C@H](CO)[C@H]2C(=O)NC1CCC1	6	8	-1.9
C/C=C/c1ccc2c(c1)O[C@@H](CN(C)C(=O)CN1CCOCC1)[C@H](C)CN([C@@H](C)CO)S2(=O)=O	7	3	4.0
COc1ccc2c3c([nH]c2c1)[C@@H](CO)N(S(C)(=O)=O)CC31CCN(C(=O)c2ccncc2)CC1	10	8	2.8
COc1ccc(-c2ccc([C@H]3[C@H](CO)N4C(=O)CNC[C@@H]34)cc2)cc1	22	-7	29
COc1ccc(C#Cc2ccc3c(c2)O[C@@H](CN(C)C(=O)NC2CCCCC2)[C@@H](C)CN([C@@H](C)CO)S3(=O)=O)cc1	0	-4	4.3
COCC(=O)N1CC[C@H]2[C@H](CO)Nc3ccc(-c4ccc(C#N)cc4)cc3[C@H]21	3	3	0.0
CCC(=O)N1[C@@H]2CN(S(=O)(=O)c3ccccc3)c3ccccc3[C@@H]2[C@@H]1CO	1	2	-0.9
COCCNC(=O)C[C@@H]1C[C@@H]2c3cc(NC(=O)c4cccnc4)ccc3O[C@@H]2[C@H](CO)O1	7	2	5.4
COc1ccc2c3c(n(C)c2c1)[C@H](CO)N(Cc1nccs1)CC31CCN(C)CC1	3	31	-28
O=C(c1cccnc1)N1C[C@@H]2[C@H](c3ccccc31)[C@H](CO)N2C(=O)Nc1ccc(F)cc1	-3	-1	-1.3
COc1cccc(S(=O)(=O)Nc2ccc3c(c2)[C@@H]2C[C@@H](CC(=O)NCCc4ccccc4)O[C@H](CO)[C@@H]2O3)c1	-4	0	-4.4
C[C@@H]1CCCCO[C@@H](CN(C)C(=O)C2CCCCC2)[C@H](C)CN([C@@H](C)CO)C(=O)c2cc(NS(=O)(=O)c3ccccc3)ccc2O1	2	0	1.3
Cc1noc(C)c1S(=O)(=O)N(C)C[C@@H]1OCCCC[C@H](C)Oc2ccc(NS(=O)(=O)c3cccs3)cc2C(=O)N([C@@H](C)CO)C[C@H]1C	1	0	0.6
O=C(c1ccncc1)N1C[C@@H]2N[C@H](C1)C2c1ccc(-c2ccncc2)cc1 (some centres not stated)	5	-6	12
C[C@H](CO)N1C[C@H](C)[C@H](CN(C)C(=O)CCCN(C)C)OCc2cnnn2CCCC1=O	2	1	1.0
C[C@@H]1CN([C@@H](C)CO)C(=O)Cc2cc(NS(C)(=O)=O)ccc2O[C@H]1CN(C)S(=O)(=O)c1cccs1	-2	-1	-0.6
COc1ccc(NC(=O)N[C@@H]2CC[C@@H](CCNC(=O)c3ccccc3F)O[C@H]2CO)cc1	-1	-8	6.8
C[C@H](CO)N1C[C@H](C)[C@H](CN(C)Cc2ccncc2)OCc2cnnn2CCCC1=O	-3	-5	2.2

In a second layout: entries from further up
| SMILES | DUX4 txn inh | DUX4 txn inh difference | DUX4 txn inh control |
| --- | --- | --- | --- |
| COc1ccc2c3c(n(C)c2c1)[C@H](CO)N(Cc1nccs1)CC31CCN(C)CC1 | 3 | 31 | -28 |
| O=C(c1cccnc1)N1C[C@@H]2[C@H](c3ccccc31)[C@H](CO)N2C(=O)Nc1ccc(F)cc1 | -3 | -1 | -1.3 |
| COc1cccc(S(=O)(=O)Nc2ccc3c(c2)[C@@H]2C[C@@H](CC(=O)NCCc4ccccc4)O[C@H](CO)[C@@H]2O3)c1 | -4 | 0 | -4.4 |
| C[C@@H]1CCCCO[C@@H](CN(C)C(=O)C2CCCCC2)[C@H](C)CN([C@@H](C)CO)C(=O)c2cc(NS(=O)(=O)c3ccccc3)ccc2O1 | 2 | 0 | 1.3 |
| Cc1noc(C)c1S(=O)(=O)N(C)C[C@@H]1OCCCC[C@H](C)Oc2ccc(NS(=O)(=O)c3cccs3)cc2C(=O)N([C@@H](C)CO)C[C@H]1C | 1 | 0 | 0.6 |
| O=C(c1ccncc1)N1C[C@@H]2N[C@H](C1)C2c1ccc(-c2ccncc2)cc1 (some centres not stated) | 5 | -6 | 12 |

Other entries follow:
SMILES	DUX4 txn inh	DUX4 txn inh difference	DUX4 txn inh control
CNC[C@@H]1Oc2ncc(C#Cc3cccc(OC)c3)cc2C(=O)N([C@@H](C)CO)C[C@@H]1C	5	3	1.6
CCNC(=O)[C@@H]1[C@@H](CO)[C@@H]2Cn3c(cccc3=O)[C@@H]2N1C(=O)CC1CC1	0	-10	9.8
C[C@H](NC(=O)C[C@@H]1CC[C@H]2[C@@H](COC[C@H](O)CN2C(=O)Nc2cccc(Cl)c2)O1)c1ccccc1	-6	-7	0.8
COC(=O)C[C@@H]1C[C@H]2c3cc(NC(=O)Cc4ccncc4)ccc3O[C@H]2[C@H](CO)O1	3	-1	4.3
OC[C@H]1[C@@H](c2ccc(/C=C/c3ccccc3)cc2)[C@@H]2CN(Cc3ccncc3)CCCCN12	?	nt	nt
COc1ccc(CN2C[C@H](O)COC[C@H]3O[C@@H](CC(=O)N(C)C)CC[C@@H]32)cc1	-2	6	-8.2
OC[C@H]1Nc2ccc(C#Cc3ccc(F)cc3)cc2[C@@H]2[C@H]1CCN2Cc1ccc2c(c1)OCO2	13	4	10.0
CN1c2ccc(-c3cccc(F)c3)cc2[C@@H]2[C@@H](CCN2C(=O)c2ccncc2)[C@H]1CO	-4	3	-7.1
CO[C@H](CN(C)C(=O)Nc1ccc(C(F)(F)F)cc1)[C@@H](C)CN(Cc1ccccc1Cl)[C@H](C)CO	5	6	-0.9
CNC[C@@H]1Oc2c(NC(=O)C3CCOCC3)cccc2C(=O)N([C@@H](C)CO)C[C@@H]1C	-3	3	-6.0
CO[C@H](CN(C)C(=O)c1ccc2c(c1)OCO2)[C@H](C)CN([C@H](C)CO)S(=O)(=O)c1ccc(C)cc1	1	-2	2.8
C/C=C/c1ccc([C@H]2[C@@H](CNC(=O)CC)N(C(=O)CC)[C@H]2CO)cc1	-3	-3	-0.4
OC[C@@H]1[C@@H](c2ccc(-c3cccnc3)cc2)[C@@H]2CN(Cc3ccccn3)CCCCN12	18	21	-2.4
CCCC#Cc1ccc([C@H]2[C@H]3CN(Cc4ccncc4)CCCCN3[C@H]2CO)cc1	-9	-2	-7.3
Cc1ccc(S(=O)(=O)N(C)C[C@H]2Oc3ccc(NC(=O)CCCN(C)C)cc3C(=O)N([C@@H](C)CO)C[C@@H]2C)cc1	-1	-5	4.3
C/C=C/c1ccc2c(c1)[C@H]1[C@H](CCN1S(=O)(=O)c1cccc(F)c1)[C@@H](CO)N2	27	18	9.1
COc1cc(CN2CC3(CN(S(=O)(=O)c4cn(C)cn4)C3)c3c(n(C)c4cc(OC)ccc34)[C@H]2CO)cc(OC)c1	-3	-3	-0.3
COc1cccc(S(=O)(=O)N2C[C@H](O)COC[C@H]3O[C@H](CC(=O)Nc4ccccc4)CC[C@@H]32)c1	-1	-5	3.8
C[C@H]1CN([C@@H](C)CO)C(=O)CCCn2cc(nn2)CO[C@@H]1CN(C)C(=O)Nc1ccccc1F	4	3	1.3
O=C(Nc1ccc(F)cc1)Nc1ccc2c(c1)[C@@H]1C[C@H](CC(=O)N3CCOCC3)O[C@@H](CO)[C@@H]1O2	6	10	-4.0
CN1CCCCN2[C@H](C1)[C@H](c1ccc(C#Cc3ccccc3F)cc1)[C@@H]2CO	-6	2	-8.6

From PubChem BioAssay
